L3MBTL1 block: L3MBTL1 (human) inhibition; Q9Y468; AlphaScreen L3MBTL1–H3K9me1 peptide binding; Potency, µM (doses to about 57.1 µM), inactives show at the highest dose activity, negative = inhibition, actives largely listed as inhibitors; 0.66% of 230,000 active; further: on the % scale 0 is the no-effect control and ±100 the full control effect; nearly all actives have a fitted effect of over 60% in size
Target sequence (Q9Y468 whole entry, looked up): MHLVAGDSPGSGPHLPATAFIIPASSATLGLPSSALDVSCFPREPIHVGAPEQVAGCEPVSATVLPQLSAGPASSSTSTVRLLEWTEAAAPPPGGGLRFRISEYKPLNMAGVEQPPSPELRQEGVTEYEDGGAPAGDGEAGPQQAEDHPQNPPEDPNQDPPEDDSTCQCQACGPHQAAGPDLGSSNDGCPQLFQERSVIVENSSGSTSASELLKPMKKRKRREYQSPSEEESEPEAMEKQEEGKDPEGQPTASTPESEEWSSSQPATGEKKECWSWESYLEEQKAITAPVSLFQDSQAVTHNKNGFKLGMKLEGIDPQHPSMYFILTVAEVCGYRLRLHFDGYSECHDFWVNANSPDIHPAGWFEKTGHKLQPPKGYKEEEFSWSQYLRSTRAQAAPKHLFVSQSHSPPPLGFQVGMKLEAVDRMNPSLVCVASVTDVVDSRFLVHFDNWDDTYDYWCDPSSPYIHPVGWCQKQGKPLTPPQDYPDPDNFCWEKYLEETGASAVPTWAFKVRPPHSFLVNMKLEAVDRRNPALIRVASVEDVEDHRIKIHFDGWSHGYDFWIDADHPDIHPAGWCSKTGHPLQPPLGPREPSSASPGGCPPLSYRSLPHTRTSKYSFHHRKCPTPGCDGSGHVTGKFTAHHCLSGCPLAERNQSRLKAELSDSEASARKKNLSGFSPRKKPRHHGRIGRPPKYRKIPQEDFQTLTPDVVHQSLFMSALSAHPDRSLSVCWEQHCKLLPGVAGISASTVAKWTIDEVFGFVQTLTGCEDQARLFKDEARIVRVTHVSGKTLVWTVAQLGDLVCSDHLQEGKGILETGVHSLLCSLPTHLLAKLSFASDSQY
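Read-out is AlphaScreen signal from streptavidin donor and nickel chelate acceptor beads (10 ug/mL final each) bridging L3MBTL1 (50 nM) and biotinylated K9-monomethylated H3(1-15) peptide (75 nM), after 30 min compound exposure at room temperature.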
JMJD2E inh: JMJD2E (human) inhibition | B2RXH2 | 1.6% of 230,000 active | JMJD2E catalytic domain, FDH-coupled NADH fluorescence (FDH is formaldehyde dehydrogenase) | Potency, µM (highest dose often 57.1 µM), inactives show at the top dose activity change, negative = inhibition, usual class: inhibitors; active means well fitted inhibition curve with a large enough effect, not every such curve was filed as active; inconclusive means small, poorly fitted or top-dose-only effect, or another doubt; inactive means no such curve, though single readings can be large or run the other way;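 further: 0% = wells with enzyme and -100% = buffer wells without enzyme; nearly all actives have a fitted effect of over 50% in size; many of its hits are not listed in these tables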
SMN2 splice enh: enhancers of SMN2 splice variant expression; 2.8% of 210,000 active; Potency, µM (top dose mostly 46.1 µM), for the others: top-dose activity change, positive = activation, actives largely listed as activators; HEK293 SMN2-luciferase splicing reporter, luminescence, 30-36 h; further: % of control where 0% means no effect; nearly all actives have a fitted effect of over 55% in size
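HEK293 cells carry an SMN2 minigene-luciferase reporter in which exon 7 inclusion puts luciferase in frame. Cells were seeded at 2000 cells/well, attached for 10-12 hours, then exposed to compounds for 30-36 hours at 37C before ONE-Glo luminescence.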
Luc counter: blocks Kinase-Glo luciferase, a counter-screen artifact. Q27757. Kinase-Glo luciferase, ATP luminescence, 8 min. Potency, µM (titrated, usually from 38.3 µM), inactives show at the highest dose activity change, negative = inhibition, hits mostly inhibitors. 0.28% of 200,000 active. AID 1379; further: on the % scale 0 is the no-effect control and ±100 the full control effect; nearly all actives have a fitted effect of over 60% in size
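Luminescence was the read-out, taken after 8-minute incubation at ambient temperature. Luciferase turned over luciferin with 10 uM ATP in imidazole pH 7.2 buffer containing KCl, MgCl2, Tween 20 and BSA.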
RECQ1 helicase: inhibitors of human RECQ1 DNA helicase; P46063; RECQ1 DNA unwinding, red fluorescence kinetic read; Potency, µM (series often up to 57.3 µM), inactives show at the top dose activity, negative = inhibition, most hits filed as inhibitors; 0.54% of 240,000 active;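 further: plate controls were vehicle for no effect and no enzyme for full effect; nearly all actives have a fitted effect of over 30% in size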
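RECQ1T1 50 nM; forked duplex (20 bp + 30-nt ss tails) 200 nM, ATP 2 mM final; pH 8.0, 2 mM MgCl2, 2.5 ug/ml poly(dI-dC); 15 min compound preincubation; discontinuous kinetic read over 2 h at RT.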
Tau ThT inhib: tau fibrillization inhibition (ThT binding). recombinant tau K18 P301L, heparin-induced fibrillization, ThT fluorescence. Potency, µM (doses to about 57.4 µM), inactives show at the highest dose activity, negative = inhibition, most hits filed as inhibitors. 2.1% of 270,000 active. AID 1460; further: on the % scale 0 is the no-effect control and ±100 the full control effect; nearly all actives have a fitted effect of over 55% in size
Target sequence (P10636 561-689 P618L limits assumed): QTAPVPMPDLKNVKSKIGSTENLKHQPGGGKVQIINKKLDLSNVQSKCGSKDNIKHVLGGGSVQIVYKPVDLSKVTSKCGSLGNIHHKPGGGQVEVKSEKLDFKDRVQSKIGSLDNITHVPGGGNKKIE
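ThT emission at 510 nm, taken 1 hr after adding 30 uM dye, quantifies aggregates formed when 20 uM heparin acts on human tau K18 P301L for 6 hr at 37 C.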
Lamin A splicing: modulators of lamin A splicing; Potency, µM (top dose mostly 46.1 µM), for the others: top-dose ratio change, negative = inhibition, usual class: inhibitors; 0.01% of 200,000 active; HeLa LMNA splicing GFP/RFP minigene ratio, 48 h; active means well fitted inhibition curve with a large enough effect in the signal ratio, with a control signal flat, not every such curve was filed as active; inconclusive means small, poorly fitted or top-dose-only effect, or effect the other way, or a change in a side signal; the % refers to the signal ratio; further: on the % scale 0 is the no-effect control and ±100 the full control effect
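S3 HeLa stable clones carrying a lamin A-EGFP splicing minigene plus DsRed2 were seeded at 600 cells/well in Opti-MEM with 2% FBS, pin-dosed and incubated 48 h at 37°C. Acumen cytometry (488 nm) gave the GFP/RFP total-intensity ratio.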
* hit, by the source's call; i = inactive; ? = inconclusive; / = no result given; & = joins results of further samples; [ ] = another dose, or the depositor's remark. Unless noted, the call rests on the fitted dose curve; in most records, active means well fitted curve in the direction sought with a large enough effect; inconclusive means small, poorly fitted or top-dose-only effect, or another doubt; inactive means no such curve, though single readings can be large; an effect the other way counts as inactive or inconclusive. Potency means the concentration at half of the fitted maximal effect. A portion of the library; rates above refer to the full screens.

SMILES	L3MBTL1 block	JMJD2E inh	SMN2 splice enh	Luc counter	RECQ1 helicase	Tau ThT inhib	Lamin A splicing
CCOc1cccc(OCCOCCNC(C)(C)C)c1	5.7%	?	-5.2%	-1.2%	-0.2%	0.2%	4.6%
CC(CCc1ccccc1)NC(=O)c1cc2sccc2n1C (stereo unspecified)	-9.0%	?	-18.9%	-0.8%	-9.6%	-12.6%	-12.1%
COc1cccc(/C=C/C2=CC(C)(C)NC(=S)N2)c1	-26.7%	-11.1%	-11.1%	-1.1%	4.3%	-7.3%	?
O=C(CSc1n[nH]c(=O)n1-c1ccccc1)Nc1ccccc1	5.5%	3.4%	/	/	-6.2%	-1.2%	/
OC(C#Cc1ccccn1)c1cccs1 (stereo unspecified)	?	-5.8%	-18.1%	-15.4%	-0.8%	?	-9.4%
C=CCn1c(COc2ccc(CC)cc2)nnc1SCC(=O)N(C)C1CCS(=O)(=O)C1 (stereo unspecified)	-6.2%	?	-21.9%	-6.0%	-4.2%	3.8%	-1.4%
CC(C)C/C=C1\CCc2c([nH]c3ccccc23)C1=O	0.3%	-7.6%	/	0.2%	-1.6%	?	/
Cc1nc2ccc(S(=O)(=O)NC(C(=O)NCc3ccco3)C(C)C)cc2s1 (stereo unspecified)	0.6%	-4.7%	12.1%	-1.4%	i	10.6%	-8.0%
CC1CCN(S(=O)(=O)c2ccc3ncn(CC(=O)N(C)Cc4ccccc4)c(=O)c3c2)CC1	-4.3%	2.9%	20.2%	0.7%	-1.2%	2.0%	12.6%
COC(=O)c1ccc(Cn2c(O)c(N=O)c3ccccc32)o1	1.1%	-0.3%	/	/	-6.7%	?	8.6%
CC1=NNC(=O)C1CC(=O)N/N=C(\C)c1cccs1 (stereo unspecified)	1.3%	-7.5%	11.9%	1.8%	-14.3%	5.2%	11.8%[46 µM]
CCCc1nc2scc(-c3ccc(C)cc3)c2c(=O)n1N	/	-1.5%	-19.9%	-2.3%	-10.3%	-6.9%	?

The final 5 compounds of the part above open the next one.
SMILES	L3MBTL1 block	JMJD2E inh	SMN2 splice enh	Luc counter	RECQ1 helicase	Tau ThT inhib	Lamin A splicing
Cc1nc2ccc(S(=O)(=O)NC(C(=O)NCc3ccco3)C(C)C)cc2s1 (stereo unspecified)	0.6%	-4.7%	12.1%	-1.4%	i	10.6%	-8.0%
CC1CCN(S(=O)(=O)c2ccc3ncn(CC(=O)N(C)Cc4ccccc4)c(=O)c3c2)CC1	-4.3%	2.9%	20.2%	0.7%	-1.2%	2.0%	12.6%
COC(=O)c1ccc(Cn2c(O)c(N=O)c3ccccc32)o1	1.1%	-0.3%	/	/	-6.7%	?	8.6%
CC1=NNC(=O)C1CC(=O)N/N=C(\C)c1cccs1 (stereo unspecified)	1.3%	-7.5%	11.9%	1.8%	-14.3%	5.2%	11.8%[46 µM]
CCCc1nc2scc(-c3ccc(C)cc3)c2c(=O)n1N	/	-1.5%	-19.9%	-2.3%	-10.3%	-6.9%	?
COc1ccc(CC(=O)NC(C)C2COc3ccccc3O2)cc1OC (stereo unspecified)	-2.1%	2.0%	-23.3%	-0.9%	18.5%	-1.5%	18.8%[46 µM]
CN(CC(=O)NCc1ccccn1)S(=O)(=O)c1ccc2ccccc2c1	4.6%	0.1%	/	-5.7%	i	1.2%	-8.5%[46 µM]
O=C(CC1C(=O)N(c2ccc(F)cc2)C(=O)N1Cc1ccccn1)Nc1ccccc1 (stereo unspecified)	/	6.7%	-7.6%	0.1%	-0.6%	-2.6%	12.1%
O=C(COC(=O)C1Cc2ccccc2CN1C(=O)c1ccccc1)Nc1ccc(SC(F)F)cc1 (stereo unspecified)	-5.0%	-7.0%	-1.6%	-0.1%	-6.8%	-3.3%	4.4%
CN1CCC2(CC1)C1CN(C)CC=C1C(C#N)=C(N)C2(C#N)C#N (stereo unspecified)	-2.0%&27.2%	?	-7.3%&6.8%	-5.2%&-10.9%	-7.5%&-11.9%	?	10.5%
O=C(CCNS(=O)(=O)c1ccc(Br)s1)N1CCN(c2ccccc2)CC1	-3.0%	1.9%	-1.1%	3.3%	-9.9%	-8.0%	6.0%
COc1ccc(C(=O)C2CCCN(Cc3cccn3-c3ccc(Cl)cn3)C2)c(OC)c1 (stereo unspecified)	-9.1%	-5.2%	-94.1%[inhibitor]	-5.9%	19.2%	1.1%	/
O=C(Nn1cnnc1)c1cc([N+](=O)[O-])cc([N+](=O)[O-])c1	4.6%	17.7%	15.6%	6.9%	-3.3%	0.4%	-2.7%
CCOC(=O)Cc1csc(NC(=O)C2C3C=CC(C3)C2C(=O)O)n1 (stereo unspecified)	/	-2.6%	20.4%	1.6%	-6.7%	-7.9%	6.3%
COc1cccc(-n2ccnc2SCC(=O)N2CCc3ccccc32)c1	-4.8%	4.0%	-12.1%	-2.9%	i	-10.3%	-2.1%
O=C(NCc1cccnc1)c1cc(C(=O)C2CC2)c[nH]1	11.4%	8.3%	0.4%	6.1%	-7.0%	-9.1%	13.8%[46 µM]
COc1ccccc1NC1=C(Cl)C(=O)N(c2ccccc2)C1=O	-15.2%	-5.9%	-6.4%	-2.1%	-2.4%	?	1.1%

Complete entries, quoted from the list:
O=C(COC(=O)C1Cc2ccccc2CN1C(=O)c1ccccc1)Nc1ccc(SC(F)F)cc1 (stereo unspecified) reads L3MBTL1 block = -5.0%; JMJD2E inh = -7.0%; SMN2 splice enh = -1.6%; Luc counter = -0.1%; RECQ1 helicase = -6.8%; Tau ThT inhib = -3.3%; Lamin A splicing = 4.4%
COc1cccc(-n2ccnc2SCC(=O)N2CCc3ccccc32)c1 reads L3MBTL1 block = -4.8%; JMJD2E inh = 4.0%; SMN2 splice enh = -12.1%; Luc counter = -2.9%; RECQ1 helicase = i; Tau ThT inhib = -10.3%; Lamin A splicing = -2.1%
O=C(NCc1cccnc1)c1cc(C(=O)C2CC2)c[nH]1 reads L3MBTL1 block = 11.4%; JMJD2E inh = 8.3%; SMN2 splice enh = 0.4%; Luc counter = 6.1%; RECQ1 helicase = -7.0%; Tau ThT inhib = -9.1%; Lamin A splicing = 13.8%[46 µM]

Remaining list, next part
SMILES	L3MBTL1 block	JMJD2E inh	SMN2 splice enh	Luc counter	RECQ1 helicase	Tau ThT inhib	Lamin A splicing
CC1(C)Cc2cccc(OCC(=O)N3CCN(S(=O)(=O)c4ccccc4F)CC3)c2O1	4.0%	7.4%	-9.8%	4.0%	-2.7%	-7.3%	12.9%
COc1ccc(CSCC(=O)N/N=C/c2ccccc2O)cc1	2.0%	31.6µM*	-85.0%[inhibitor]	5.0%	i	-7.5%	?
CCCCOc1ccc(NC2=NC3(CCCC3)N=C(N)N2)cc1	1.1%	10.8%	-12.7%	-2.2%	i	-1.6%	-7.0%
O=C(O)C1CC(=O)N(CCc2ccccc2)C1 (stereo unspecified)	/	5.0%	-16.9%	0.5%	-15.8%	-10.0%	10.8%
CN(CC(=O)NC1CCCCC1)S(=O)(=O)c1cccc2cccnc12	/	-2.7%	-25.9%	4.2%	-5.9%	-11.4%	-8.9%
C=CCOc1c(/C=N\NC(N)=O)cccc1OC	9.5%	?	/	/	7.1%	-6.1%	/
O=C(CSc1nnnn1-c1cccc(Cl)c1)Nc1ccc2c(c1)CCC2	?	-9.1%	/	/	-8.9%	12.5%	-9.4%
COc1cc(N2C(=O)c3ccccc3C2=O)c(Cl)cc1C(=O)OCC(=O)NCc1ccco1	?	-4.8%	-6.9%	-0.5%	i	0.4%	3.9%
O=C(O)CCCCCN1C(=O)C2CCCCC2C1=O (stereo unspecified)	28.3%	5.4%	9.8%	0.6%	i	-2.7%	-1.4%
COc1ccc(NC(=O)CN2CCN(C(=O)c3ccco3)CC2)c(OC)c1	2.9%	-2.6%	-9.5%	-0.2%	-12.4%	-3.5%	-0.6%
COc1cccc(C=NCCNC(=O)c2nonc2N)c1O	-3.1%	0.5%	-6.5%	-6.6%	i	?	?
CCOC(=O)N1N=C(c2ccc(C)cc2)CC1(O)C(F)(F)F (stereo unspecified)	30.3%[activator]	-2.0%	20.8%	4.7%	-1.8%	2.3%	0.2%
CCN1C(=O)/C(=C\C=C\c2ccccc2[N+](=O)[O-])SC1=S	/	-5.7%	25.5%	-0.7%	i	?	20.5%[9.22 µM]
O=C(Nc1nnc(-c2ccccc2)s1)c1ccc(F)cc1	9.0%	?	?	1.0%	-3.7%	7.2%	/
O=C(Oc1ccc2c(=O)c(Oc3ccc4ccccc4c3)coc2c1)c1ccco1	/	-13.3%	-1.4%	-0.1%	i	?	?
COC(=O)[C@@]1(Cc2ccc(OC)cc2)[C@H]2c3cc(C(=O)N4CCCC4)n(CCSCCO)c3C[C@H]2CN1C(=O)c1ccccc1	-11.9%	3.0%&-1.4%	1.4%	-0.5%&0.0%	3.5%&-9.7%	9.9%&-5.7%	3.9%
O=C(Oc1ccc(-c2cn3c(n2)SCC3)cc1)c1ccccc1	-9.9%	-25.1%	?	-11.9%	-17.7%	?	-8.0%
Fc1ccc(NC(=S)Nc2cccnc2)c(Cl)c1	9.6%	-23.0%	-2.4%	-0.6%	i	0.0%	16.0%[46 µM]
CCOC(=O)C1(CC2CCCCO2)CCN(Cc2nccn2-c2ccc(OC)cc2)CC1 (stereo unspecified)	-9.3%	2.8%	/	2.0%	-3.8%	-3.7%	/
CCOC(=O)n1c(=O)n(Cc2ccccc2Cl)c2ccccc21	5.1%	5.6%	-20.8%	-1.6%	-5.4%	-14.1%	18.6%
CC1=C(C(=O)OC(C)C)C(c2cccnc2)n2ncnc2N1 (stereo unspecified)	/	11.4%	-8.3%	-0.1%	-4.2%	-5.7%	8.9%
COc1cccc([C@@H]2Oc3ccc(OC)cc3C(=O)[C@H]2OC(=O)NCc2ccc3c(c2)OCO3)c1	-16.0%	?	13.2%	2.1%&-3.1%	1.3%	?	-7.7%
CN1CCCC1=Nc1c2c(nc3ccccc13)N(C)CC2	0.5%	?	-15.2%	1.1%	2.0%	7.2%	2.9%

Ordered by molecular weight (smallest number first): part of the list above.
SMILES	L3MBTL1 block	JMJD2E inh	SMN2 splice enh	Luc counter	RECQ1 helicase	Tau ThT inhib	Lamin A splicing
Fc1ccc(NC(=S)Nc2cccnc2)c(Cl)c1	9.6%	-23.0%	-2.4%	-0.6%	i	0.0%	16.0%[46 µM]
CCN1C(=O)/C(=C\C=C\c2ccccc2[N+](=O)[O-])SC1=S	/	-5.7%	25.5%	-0.7%	i	?	20.5%[9.22 µM]
CCOC(=O)n1c(=O)n(Cc2ccccc2Cl)c2ccccc21	5.1%	5.6%	-20.8%	-1.6%	-5.4%	-14.1%	18.6%
